RGS16-Gao HTS – modulators of RGS16 binding to Galphao, primary screen, biochemical, human proteins, multiplexed bead flow cytometry. 220,000 compounds, 0.38% hits. binding response (% of control), % at 10 µM. Regulator of G-protein signaling 16 (Homo sapiens) + Guanine nucleotide-binding protein …. bead-based flow cytometry RGS16-Galphao binding, fluorescence; actives lie on both sides;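 active = below 25% or above 175%, edge rows of some plates excepted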;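 also: Galphao activated by GDP with aluminum fluoride before binding; 100% = wells without compound and 0% = beads without RGS; some results beyond the cut were filed as inactive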
Target sequence (O15492 whole entry, looked up): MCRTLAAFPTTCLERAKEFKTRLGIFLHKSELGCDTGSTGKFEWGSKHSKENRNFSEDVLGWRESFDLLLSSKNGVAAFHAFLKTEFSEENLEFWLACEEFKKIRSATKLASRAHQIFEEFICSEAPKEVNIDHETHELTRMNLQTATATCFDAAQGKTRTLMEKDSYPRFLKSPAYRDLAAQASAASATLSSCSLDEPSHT
Target sequence (P09471 whole entry, looked up): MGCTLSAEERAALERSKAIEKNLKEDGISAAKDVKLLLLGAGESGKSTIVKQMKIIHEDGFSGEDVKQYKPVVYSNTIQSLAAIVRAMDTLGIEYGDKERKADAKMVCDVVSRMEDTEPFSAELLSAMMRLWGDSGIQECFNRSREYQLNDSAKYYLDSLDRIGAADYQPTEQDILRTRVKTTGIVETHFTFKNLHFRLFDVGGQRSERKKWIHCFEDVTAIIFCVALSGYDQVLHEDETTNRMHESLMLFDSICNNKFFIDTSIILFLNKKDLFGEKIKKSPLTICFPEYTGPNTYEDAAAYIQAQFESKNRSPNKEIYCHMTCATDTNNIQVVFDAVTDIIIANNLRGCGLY
INS promoter inh – inhibitors of insulin promoter-driven GFP, primary screen, imaging, TRM-6 cells (human fetal islet line), eGFP reporter, cell count; reporter expression induced with tamoxifen; inhibition, % at 2 µM; 130,000 compounds, 0.9% hits; AID 1273, 2008;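 active = inhibition above the mean plus 3 SD, with well images judged a real hit on visual review, cut at about 60% in these data, passing the limit was not always enough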
HSV replic up – enhancers of HSV replication in host cells, fold increase, host cell viability; HSV replication augmentation in cells; maximum fold increase; 220,000 compounds, 0.005% hits; AID 1956, 2009;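 active = peak rise of 1.5-fold or more in the series; tested in PC3 cells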;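 also: first round at 10 µM; read as green reporter fluorescence; hits show the peak of a series up to 25 µM; 1 = signal of infected wells without compound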
PKD1 kinase inh – inhibitors of human PKD1 kinase, biochemical, fluorescence polarization | Serine/threonine-protein kinase D1 (Homo sapiens), Q15139 | PKD1 kinase fluorescence polarization assay | inhibition, %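 (about 10 µM by stock and volumes)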 | 200,000 compounds, 0.056% hits;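 active = inhibition of 50% or more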;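 also: controls were vehicle for no effect and a reference inhibitor for full effect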
GALR2 ag – GALR2 receptor agonists, primary screen, cell-based; AID 803, 2007; Galanin receptor type 2 (Homo sapiens), O43603; activation, %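 (tested at 5 µM)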; 140,000 compounds, 0.48% hits; GALR2-expressing cells, agonist activation read-out;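 active = above mean plus 3 SD of all compounds, about 5% in these data, not always enough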;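 also: 0% = vehicle buffer wells and 100% = reference agonist at full effect; tested in CHO reporter cells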
Target sequence (O43603 whole entry, looked up): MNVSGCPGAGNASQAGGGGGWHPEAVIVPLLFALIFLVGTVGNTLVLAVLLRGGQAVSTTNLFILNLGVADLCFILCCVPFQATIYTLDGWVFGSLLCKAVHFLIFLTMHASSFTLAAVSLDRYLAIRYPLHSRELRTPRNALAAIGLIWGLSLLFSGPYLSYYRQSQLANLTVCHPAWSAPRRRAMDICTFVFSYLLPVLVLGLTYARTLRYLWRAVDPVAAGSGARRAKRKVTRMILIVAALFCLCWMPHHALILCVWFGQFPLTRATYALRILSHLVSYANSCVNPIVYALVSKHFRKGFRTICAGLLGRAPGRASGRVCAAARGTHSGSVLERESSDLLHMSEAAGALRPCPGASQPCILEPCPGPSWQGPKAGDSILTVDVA
INS promoter inh cell count – second read-out of INS promoter inh, no call of its own (marks repeat the call); normalized cell count, %; measured here: cell count, toxicity; reference of the scale not given here;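 cells exposed to compound for 48 h; stained nuclei by imaging scaled within each plate; lower means fewer cells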
HSV replic up primary fold – also measured in HSV replic up; calls as there; fold increase; compound at 10 µM; measured here: primary screen fold increase 10 uM; tested in PC3 cells;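 GFP signal in the first replicate; 1 = infected wells without compound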
* = called active by the depositor; i = inactive; . = no result given.

SMILES | RGS16-Gao HTS | INS promoter inh | INS promoter inh cell count | HSV replic up | HSV replic up primary fold | PKD1 kinase inh | GALR2 ag
CCCc1nn(C)c(C(=O)Nc2ccc(CC)cc2)c1Cl | 84 | . | . | i | 0.95 | -6 | -0.9
COc1ccc(NS(=O)(=O)c2ccc(NC(=O)c3ccccc3Br)cc2)nn1 | 106 | 14 | 99 | i | 1 | -2 | .
Cc1cc(C)n(-c2cc(Cl)cc(Cl)c2)c(=O)c1C#N | 105 | -138 | 104 | i | 0.93 | -7 | 3.3
Cn1c(=O)c2c(nc(N/N=C/c3ccncc3)n2Cc2ccccc2)n(C)c1=O | 96 | . | . | i | 0.92 | . | .
CN(C)c1ncc(S(=O)(=O)c2ccccc2)c(N)n1 | 93 | 33 | 128 | i | 1.3 | -1 | .
CCc1nc2ccccc2c(C(=O)Oc2ccc(C(=O)OC)cc2)c1C | 108 | . | . | . | . | -5 | 1.2
O=C(O)C1=NOC(CNc2ncc(C(F)(F)F)cc2Cl)C1 (centres undefined) | 99 | 0 | 126 | i | 0.93 | -2 | .
COc1ccccc1N1CCN(/N=C/c2ccc(O)c(O)c2)CC1 | 95 | -27 | 57 | i | 0.71 | 8 | .
O=C(N/C(=C/c1ccc(Br)cc1)C(=O)N1CCCC1)c1ccccc1F | 103 | -27 | 106 | i | 1.1 | 1 | 0.6
O=C(CCCn1c(=O)[nH]c2ccccc2c1=O)N1CCN(c2ccccn2)CC1 | 91 | 45 | 83 | . | . | 0 | 0.6
Cc1nnc(N)s1 | 105 | . | . | i | 0.93 | . | .
CC(=O)Oc1c(Cl)c(N2CCOCC2)c(OC(C)=O)c2ccccc12 | 102 | -11 | 82 | i | 0.9 | 7 | -0.6
CCc1ccccc1NC(=O)CN(c1ccc(OC)cc1OC)S(=O)(=O)c1ccccc1[N+](=O)[O-] | 99 | . | . | i | 1 | 3 | .
O=C1CCC(C(=O)N(c2ccccc2)C2(C(=O)NC3CCCCC3)CCCCC2)N1 (centres undefined) | 105 | -36 | 107 | i | 1.1 | -4 | 0.2
COc1ccc(-c2[nH]ncc2CN(C)Cc2cnccn2)c(OC)c1 | 103 | . | . | i | 1 | -2 | .
O=C(CCNC(=O)c1ccccc1)Nc1ccc(F)c(Cl)c1 | 103 | -6 | 116 | i | 0.94 | 0 | -0.7
COc1ccc(C)cc1NC(=O)CSc1ccc(Cl)cc1 | 104 | 6 | 94 | i | 0.99 | 7 | -0.6
O=C1CN(C(=O)COc2ccc(Br)cc2Br)c2ccccc2N1 | 99 | 14 | 115 | i | 0.89 | 0 | .
CCOC(=O)C(NC(C)=O)(Nc1ccc(S(=O)(=O)Nc2nccs2)cc1)C(F)(F)F (centres undefined) | 108 | 31 | 144 | i | 1 | -23 | -1.3
CC(C)COC(=O)c1ccc2c(c1O)C(=O)c1ccccc1C2=O | 95 | -58 | 91 | i | 1.1 | 7 | -3.0
CCOc1ccccc1NC(=O)CN(c1ccc(OC)cc1)S(=O)(=O)c1c(C)noc1C | 104 | . | . | i | 0.67 | 7 | 1.2
CC(C)(C)NC(=O)C(c1ccc(F)cc1)N(Cc1ccco1)C(=O)Cn1nnc(-c2cccs2)n1 (centres undefined) | 105 | -27 | 170 | i | 1 | -7 | -1.4
COc1cc2c(cc1OC)CN(Cc1cc(=O)n3c(-c4ccccc4)csc3n1)CC2 | 103 | . | . | i | 1.1 | -10 | .
CC(C)CC1NC(=O)N(CC(=O)N2CCN(S(=O)(=O)c3ccc4ccccc4c3)CC2)C1=O (centres undefined) | 107 | -3 | 142 | i | 1.1 | -5 | -0.2
CCN1CCN(c2ccc(S(=O)(=O)N(CC)CC)cc2[N+](=O)[O-])CC1 | 105 | 15 | 141 | i | 0.86 | -1 | 0.0
Cc1ccccc1N=Cc1c(O)n(-c2nccs2)c(=O)c2ccccc12 | 101 | -13 | 58 | i | 0.8 | -7 | 1.9
C=CCn1c(SCC(=O)N2CCCC2)nc2scc(-c3cccs3)c2c1=O | 100 | . | . | . | . | 3 | -0.9
COc1ccc(C(=O)NCCSCc2ccc(C)cc2)cc1 | 103 | -17 | 70 | i | 0.97 | 3 | -1.7
Cc1nc(=O)c(-c2ccccc2)c(C)n1Cc1ccccc1 | 95 | 4 | 78 | i | 0.83 | -2 | -1.7
C=CCNc1nc(Nc2ccc(OC)cc2OC)nc(OCC)n1 | 108 | 18 | 121 | i | 0.82 | -13 | -2.7

Seven entries picked at random from those above, as already listed:
SMILES | RGS16-Gao HTS | INS promoter inh | INS promoter inh cell count | HSV replic up | HSV replic up primary fold | PKD1 kinase inh | GALR2 ag
C=CCn1c(SCC(=O)N2CCCC2)nc2scc(-c3cccs3)c2c1=O | 100 | . | . | . | . | 3 | -0.9
COc1ccc(NS(=O)(=O)c2ccc(NC(=O)c3ccccc3Br)cc2)nn1 | 106 | 14 | 99 | i | 1 | -2 | .
CC(C)(C)NC(=O)C(c1ccc(F)cc1)N(Cc1ccco1)C(=O)Cn1nnc(-c2cccs2)n1 (centres undefined) | 105 | -27 | 170 | i | 1 | -7 | -1.4
COc1ccc(-c2[nH]ncc2CN(C)Cc2cnccn2)c(OC)c1 | 103 | . | . | i | 1 | -2 | .
O=C(CCCn1c(=O)[nH]c2ccccc2c1=O)N1CCN(c2ccccn2)CC1 | 91 | 45 | 83 | . | . | 0 | 0.6
Cc1nnc(N)s1 | 105 | . | . | i | 0.93 | . | .
C=CCNc1nc(Nc2ccc(OC)cc2OC)nc(OCC)n1 | 108 | 18 | 121 | i | 0.82 | -13 | -2.7

6 of the entries above in order of the RGS16-Gao HTS value, smallest number first:
Molecule | RGS16-Gao HTS
CC(C)COC(=O)c1ccc2c(c1O)C(=O)c1ccccc1C2=O | 95
Cc1ccccc1N=Cc1c(O)n(-c2nccs2)c(=O)c2ccccc12 | 101
O=C(CCNC(=O)c1ccccc1)Nc1ccc(F)c(Cl)c1 | 103
CCN1CCN(c2ccc(S(=O)(=O)N(CC)CC)cc2[N+](=O)[O-])CC1 | 105
CC(C)CC1NC(=O)N(CC(=O)N2CCN(S(=O)(=O)c3ccc4ccccc4c3)CC2)C1=O (centres undefined) | 107
C=CCNc1nc(Nc2ccc(OC)cc2OC)nc(OCC)n1 | 108

Remaining list, next part:
SMILES | RGS16-Gao HTS | INS promoter inh | INS promoter inh cell count | HSV replic up | HSV replic up primary fold | PKD1 kinase inh | GALR2 ag
COc1ccc(Br)cc1/C=N/NC(=O)c1ccc(COc2ccc3c(c2)CCC3)o1 | 96 | 2 | 122 | i | 0.88 | -7 | -1.4
O=S(=O)(/C=C/c1ccccc1)N1CCN(Cc2ccccc2)CC1 | 100 | . | . | i | 1.1 | -1 | .
CCn1cc(C(=O)NC(C)C2CC3CCC2C3)cn1 (centres undefined) | 93 | 0 | 146 | i | 0.89 | -3 | -0.5
COc1ccc(Br)cc1CN1CCN(C(=O)c2ccc(F)cc2)CC1 | 100 | . | . | i | 0.89 | -12 | .
CCCCN(CC)C(=O)CSc1nc2c(sc(=S)n2-c2ccc(OCC)cc2)c(=O)[nH]1 | 100 | . | . | i | 0.97 | -10 | .
CCOc1cc(NC(=S)NCCCN2CCOCC2)c(OCC)cc1NC(=O)c1ccccc1C | 99 | 35 | 109 | i | 0.9 | -2 | .
Cc1cccc(N(C(=O)c2snc(C(N)=O)c2N)C(C(=O)NCC2CCCO2)c2cccs2)c1 (centres undefined) | 105 | . | . | i | 0.86 | -6 | .
CCOC(=O)N1CCC(NC(=O)c2cc(C(=O)NCC(OC)OC)ccc2CO)CC1 | 114 | . | . | i | 0.84 | -6 | -0.5
Cc1cc2nc(C3CCCN(C(=S)Nc4ccccc4C)C3)[nH]c2cc1C (centres undefined) | 115 | -43 | 112 | i | 0.84 | 13 | -0.4
Cc1ccsc1C1C(C#N)=C(N)Oc2n[nH]c(C)c21 (centres undefined) | 46 | 25 | 99 | i | 0.82 | 2 | .
Nc1nonc1C(=O)N/N=C/c1ccc(-c2ccc(Cl)c(C(=O)O)c2)o1 | 105 | . | . | i | 0.83 | 4 | .
O=C(Cc1ccccc1)NCc1n[nH]c(=S)n1-c1ccc(Br)cc1 | 88 | -15 | 149 | i | 1.1 | 10 | .
Cc1ccc(NC(=O)c2ccc(OC(=O)c3ccco3)cc2)cc1 | 89 | -1 | 76 | i | 0.97 | -9 | 0.0
O=C(c1cc(S(=O)(=O)N2CCOCC2)ccc1F)N1CCN(Cc2ccccc2)CC1 | 105 | 23 | 92 | i | 1.2 | 1 | -1.3
S=C1SCN(CC2CC2)CN1CC1CC1 | 94 | . | . | i | 0.9 | . | .
CC(=O)c1ccc(NC(=O)N[C@@H](Cc2ccccc2)C(=O)O)cc1 | 90 | . | . | i | 1.1 | -7 | -0.9
COc1ccc(C2/C=C\CN(C(=O)Nc3ccccc3)CC(=O)N2Cc2ccc(F)cc2)cc1 (centres undefined) | 101 | . | . | i | 0.84 | . | .
Cc1nn(Cc2ccc(F)cc2)c(C)c1NC(=O)c1cnn2c1NC(c1ccccc1)CC2C(F)(F)F (centres undefined) | 99 | 7 | 82 | i | 0.99 | 8 | -1.2
CN=C(NC1CCCCC1)c1ccc(Cl)cc1 | 103 | -31 | 98 | i | 0.89 | -2 | -1.1
CCCc1nc(-c2cc3cc(C)ccc3[nH]c2=O)no1 | 105 | . | . | i | 0.9 | . | .
OCCN=Cc1c(O)[nH]c2ccccc12 | 103 | -6 | 192 | i | 1 | 0 | -0.1
COc1ccc(CCNC(=O)Cn2c([N+](=O)[O-])cnc2C)cc1OC | 104 | . | . | i | 0.8 | -4 | .
Cc1ccc(/C(O)=C2/C(=O)C(=O)N(Cc3ccco3)C2c2cccs2)cc1 (centres undefined) | 101 | -9 | 111 | i | 0.94 | -5 | -0.1
CN(C)CCCNc1cc(C(C)(C)C)nc2c(-c3ccccc3)cnn12 | 101 | . | . | i | 0.54 | . | .
O=c1c2[nH]c3ccc(F)cc3c2ncn1CC1CCCO1 (centres undefined) | 104 | . | . | i | 0.98 | . | .
c1ccc(CN2CCN(c3nc4ccccc4n4cnnc34)CC2)cc1 | 98 | . | . | i | 0.73 | -1 | -4.1
COc1ccc(C(=O)O)cc1S(=O)(=O)NCCc1ccccn1 | 100 | . | . | i | 1.1 | . | .
COc1ccc(CSc2nc(C)cc(C)c2C#N)cc1 | 114 | 44 | 88 | i | 0.91 | 0 | .
C=CCNc1nc(Nc2ccc(Cl)cc2)nc(OC)n1 | 100 | 7 | 173 | i | 0.93 | -8 | .
CCOC(=O)c1cc(C#N)c(N2CCN(C)CC2)nc1-c1ccccc1 | 99 | -69 | 77 | i | 0.78 | 3 | .
CC(Oc1ccc2ccccc2c1)C(=O)NNC(=S)NC(=O)c1ccco1 (centres undefined) | 76 | -4 | 65 | i | 0.89 | -7 | -1.4
COc1ccc(C)cc1NC(=O)C12CCC(C)(C(=O)O1)C2(C)C (centres undefined) | 114 | -4 | 129 | i | 1 | -4 | -1.2
O=C(C1CC1)N1CCc2cc(Br)cc(S(=O)(=O)NCC3COc4ccccc4O3)c21 (centres undefined) | 97 | -41 | 125 | i | 1 | -4 | 0.0
Cc1cc(NC(=O)CN2CCCCC2)n(-c2ccccc2)n1 | 98 | . | . | i | 1 | . | .
CSc1ccccc1NC(=O)COC(=O)c1ccccc1Cc1ccccc1 | 105 | -71 | 121 | i | 0.91 | 4 | -0.8
CCN(CC)S(=O)(=O)c1ccc(C(=O)N2CCN=C2SCc2cccnc2)cc1 | 128 | -2 | 57 | i | 0.89 | -5 | -1.5
Cc1cc(C)c2c(CC(=O)NC(C)C)coc2c1 | 160 | -45 | 94 | i | 0.92 | -1 | .
Clc1ccc2c(c1)C=Nc1c(NCc3ccccc3)ncnc1O2 | 120 | -10 | 147 | . | . | -3 | 0.0
CCCCn1c(SCC(=O)Nc2cc(C)[nH]n2)nc2ccsc2c1=O | 100 | . | . | i | 1.2 | -7 | -1.9
OCCCCNCc1ccc(OCc2ccc(Cl)cc2)cc1 | 106 | . | . | i | 0.92 | 2 | -2.0
O=C(NCc1cccs1)c1cc(-c2ccccn2)nc2ccc(Br)cc12 | 103 | . | . | i | 1 | -3 | .

Only HSV replic up primary fold and RGS16-Gao HTS, for 2 of the compounds above:
Molecule	HSV replic up primary fold	RGS16-Gao HTS
O=C(NCc1cccs1)c1cc(-c2ccccn2)nc2ccc(Br)cc12	1	103
COc1ccc(C)cc1NC(=O)C12CCC(C)(C(=O)O1)C2(C)C (centres undefined)	1	114

Screening data: PubChem BioAssay, several laboratories

No enrichment for hits; 1.3% or so of the library scored in one or more.
